# Screens deposited in PubChem BioAssay by National Center for Advancing Translational Sciences (NCATS).
# Rango release inh: qHTS Assay for Inhibitors of RanGTP induced Rango (Ran-regulated importin-beta cargo) - Importin beta complex dissociation. Snurportin-1 (Homo sapiens) + GTP-binding nuclear protein Ran (Homo sapiens) + Importin …. Biochemical FRET Rango-importin beta, RanGTP-induced dissociation. Potency, µM (doses to about 46.1 µM), inactives show top-dose activity change, negative = inhibition. actives 0.071% (n = 340,000). AID 540253, 2011; active means falling FRET ratio curve, often poorly fitted, with flat reads before Ran was added; inconclusive means other falling curves, or compound fluorescence or quenching; inactive means flat or rising ratio curve;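 further: potency means the concentration at half of the fitted maximal effect; % of control where 0% means no effect; nearly all actives have a fitted effect of over 45% in size; -100% = wells without RanGTP and RCC1; the record marks most hits as doubtful in a second field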
#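 Compounds sat 5 min at room temperature with 0.1 uM Rango biosensor plus 0.25 uM importin beta, then FRET pre-read. RanGTP-RCC1 (0.6 uM Ran, 2mM GTP, 0.2 uM RCC1) added for 45 min, and the CFP/YFP post-read measured blocked complex dissociation.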
# Rango-impB inh: qHTS Assay for Inhibitors of Rango (Ran-regulated importin-beta cargo) - Importin beta complex formation. Importin subunit beta-1 (Homo sapiens), Q14974. Rango CFP/YFP FRET sensor + importin beta, 45 min. Potency, µM (doses to about 92.2 µM), for inactives: at the top dose inhibition of complex formation. actives 0.031% (n = 340,000). AID 540263, 2011; active = rising FRET ratio curve, often small or poorly fitted; inconclusive = mostly compound fluorescence or quenching in the first reads; inactive = flat curves in all reads;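 further: potency means the concentration at half of the fitted maximal effect; 0% = DMSO wells and 100% = buffer wells lacking importin beta; nearly all actives have a fitted effect of over 15% in size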
#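 FRET biosensor (snurportin 1 IBB flanked by EYFP and cerulean), 50 nM, with compound 5 min, then 0.125 microM importin beta in PBS, 1 mM DTT, 0.02% Tween-20, 0.1% BSA. CFP/YFP ratio read after 45 min at room temperature; pre-read flags interference.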
# miR-21 FLuc: qHTS Assay for Modulators of miRNAs and/orActivators of miR-21. HeLa miR-21 FLuc reporter, luciferase, 48 h. Potency, µM (series often up to 38.3 µM), without a hit: top-dose reporter change, positive = more light. 340,000 tested, under 10 active; active = well fitted rising curve with a large enough effect; inconclusive = small, poorly fitted or top-dose-only effect; inactive = no such curve, though single readings can be large or run the other way;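 further: % of control where 0% means no effect; miR-21 action dims this reporter so a rising signal means less miR-21 action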
#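 HeLa cells stably expressing CMV-driven firefly luciferase with a downstream miR-21 binding sequence, endogenously expressing miR-21, were treated with titrations (up to about 40uM final) for 48 hours at 37 degree Celsius. Luciferase luminescence was read after lysis.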
# GLA inh pH 4.5: qHTS Assay for Inhibitors of Human alpha-Galactosidase at pH 4.5; Alpha-galactosidase A (Homo sapiens), P06280; purified enzyme, 4-MU-alpha-Gal fluorescence, pH 4.5; activity change, negative = inhibition, % at 105 µM; 230,000 tested, under 10 active; inconclusive = small, poorly fitted or top-dose-only inhibition, or a rising curve; inactive = flat fitted curve, though single readings scatter; no compound was filed as active;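 further: 0% = full activity with enzyme and -100% = basal without enzyme; dose as in the result columns while the protocol names 77 µM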
# Target sequence (P06280 whole entry, looked up): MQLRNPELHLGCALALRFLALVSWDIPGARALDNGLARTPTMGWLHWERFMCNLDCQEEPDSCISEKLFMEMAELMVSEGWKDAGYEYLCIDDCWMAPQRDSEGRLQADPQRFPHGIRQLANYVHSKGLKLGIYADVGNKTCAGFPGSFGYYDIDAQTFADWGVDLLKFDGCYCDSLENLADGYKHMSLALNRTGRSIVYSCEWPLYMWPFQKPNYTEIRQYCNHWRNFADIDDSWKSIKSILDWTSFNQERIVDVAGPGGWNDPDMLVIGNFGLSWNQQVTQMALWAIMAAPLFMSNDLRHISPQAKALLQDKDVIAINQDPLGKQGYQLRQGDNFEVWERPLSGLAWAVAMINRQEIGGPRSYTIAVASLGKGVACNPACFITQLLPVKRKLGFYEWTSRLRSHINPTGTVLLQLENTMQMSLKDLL
# * = called active by the depositor; ? = inconclusive; nt = no result given; & = joins results of further samples; [ ] = dose if it differs, or a comment.
# Values in the order: Rango release inh	GLA inh pH 4.5	miR-21 FLuc	Rango-impB inh
> CCc1ccc(NC(=O)N(CCN(C)C)C(C)c2cccnc2)cc1 (stereo unspecified)
→ 2%	-12	-12%	0.4%
> OCCN(Cc1ccccc1)Cc1cccc(F)c1
→ -16%	2	1%	9.8%
> COC(=O)c1ccc(CSc2nc3ccc(S(N)(=O)=O)cc3[nH]2)cc1
→ -2%	nt	12%	0.2%
> O=C1C2CCCCN2C(=O)N1CCCCN1CCN(c2cccc(Br)c2)CC1 (stereo unspecified)
→ 0%	nt	3%	-0.1%
> COc1ccc([C@@H]2CC=C(C(=O)O)CN2S(=O)(=O)c2ccc(C)cc2)cc1OC
→ 11%	nt	nt	-1.6%
> Cc1ccc(NC(=O)C(=O)c2c[nH]c3ccccc23)cc1
→ ?	nt	-27%	-4.1%
> COC(CNC(=O)CSCc1nc(-c2ccc(SC)cc2)oc1C)OC
→ 1%	8	9%	0.0%
> O=C(CCSCc1ccccc1Cl)NCc1ccco1
→ 22%	1	0%	0.5%
> CCNC(=O)/N=C1/NC(=O)C(C(C)C)O1 (stereo unspecified)
→ -8%	0	-3%	-0.8%
> CCOC(=O)c1c(C)[nH]c(C)c1S(=O)(=O)NCC1CCN(Cc2ccccc2OC)CC1
→ -19%	nt	-3%	-4.2%
> O=C(CN1C(=O)c2ccccc2S1(=O)=O)NCCc1ccc(F)cc1
→ 1%	nt	nt	0.1%
> CCOc1ccc(NS(=O)(=O)c2ccc3c(c2)CCN3C(C)=O)cc1
→ 0%	nt	0%&-1%	-2.2%
> CSc1ccc(/C=N/NC(=O)CN2CCN(Cc3ccc(Cl)cc3)CC2)cc1
→ -2%	7	-4%	2.4%
> Cc1ccc([N+](=O)[O-])cc1S(=O)(=O)NCc1cccnc1
→ -2%	1	1%	3.8%
> Cc1occc1-c1nnc(SCC(=O)NCCc2ccccc2)o1
→ -6%	-1	-11%	-1.5%
> N#Cc1ccc(CN2CCN(C(=O)CCNS(=O)(=O)c3ccc(F)c(F)c3)CC2)cc1
→ -15%	nt	nt	-2.8%
> [O-][n+]1ccc(C(O)c2ccccc2)cc1 (stereo unspecified)
→ -1%	nt	-1%	3.6%
> CCCC(=O)NC(C)c1nc2ccccc2n1C (stereo unspecified)
→ 13%	-5	-1%	-2.9%
> CN(C)c1ccc(CN(C(=O)C2COc3ccccc3O2)C2CCS(=O)(=O)C2)cc1 (stereo unspecified)
→ 0%	-5	2%	-0.4%
> O=C(c1cc2sccc2n1Cc1ccc(F)cc1)N1CCc2ccccc21
→ 9%	-10	-11%	-1.0%
> O=C(Nc1cc(C(F)(F)F)ccc1Cl)C1CCN(c2nnc(-n3cccc3)s2)CC1
→ 1%	5	1%	3.6%
> Cc1ccc(S(=O)(=O)N(C)C)cc1NC(=S)N(CCC#N)Cc1cccnc1
→ 0%	3	5%	-6.0%
> CN(C)CCNC(=O)Nc1cccc(Cl)c1Cl
→ -29%	7	-8%	-0.2%
> CCN(CCn1cccn1)C(=O)c1cc(COc2ccc(F)cc2Cl)on1
→ -11%	7	-16%	-3.2%
> CC1CC(C)CN(CCCNC(=O)c2ccc3c(SCC(=O)O)c4c(nc3c2)CCC4)C1 (stereo unspecified)
→ 3%	-13	1%	1.4%
> COc1ccc(Cl)cc1C(=O)N(Cc1nc(-c2cccc(C)c2)no1)C(C)C
→ -12%	-2	21%	0.8%
> CCOc1ccccc1C1C(C(=O)Nc2ccc(OC)cc2)=C(C)Nc2nc(CCCO)nn21 (stereo unspecified)
→ 15%	2	-6%	4.1%
> COC(=O)c1cc(S(=O)(=O)NCc2ccccc2)cn1C
→ -24%	nt	0%	?
> COc1ccc(C)cc1-n1nc2ccccc2n1
→ 0%	0	-14%	1.1%
> COCCN(CCOC)Cc1cc(=O)oc2cc3c(cc12)CCC3
→ 2%	-5	-24%	-0.8%

# Compound profiles, as listed above.
# `COC(=O)c1cc(S(=O)(=O)NCc2ccccc2)cn1C` as listed: Rango release inh: -24%; GLA inh pH 4.5: nt; miR-21 FLuc: 0%; Rango-impB inh: ?
# `CCOc1ccccc1C1C(C(=O)Nc2ccc(OC)cc2)=C(C)Nc2nc(CCCO)nn21` (stereo unspecified) as listed: Rango release inh: 15%; GLA inh pH 4.5: 2; miR-21 FLuc: -6%; Rango-impB inh: 4.1%

# (cont.)
# Values in the order: Rango release inh	GLA inh pH 4.5	miR-21 FLuc	Rango-impB inh
> COc1cccc(/C=C/C(=O)Nc2ccc(OC)nc2)c1
→ 12%	-12	-20%	-4.2%
> COc1ccc(C2C(C(=O)c3sc(C)nc3C)=C(O)C(=O)N2CCN(C)C)cc1OC (stereo unspecified)
→ 7%	-20	-3%	1.3%
> O=C(CCCCCN1C(=O)c2ccccc2C1=O)NC1CCCC1
→ -3%	-2	4%	6.1%
> Cc1ccc(NC(=O)CN(C)C(=O)Cc2ccc(Cl)cc2Cl)cc1
→ 1%	nt	4%	3.1%
> CC1CC(=O)Nc2ccccc2S1(=O)=O (stereo unspecified)
→ -10%	-9	-5%	-0.9%
> COc1ccc(NC(=O)c2nnn(Cc3cccc(F)c3)c2N)c(OC)c1
→ 28%	-6	5%	-0.3%
> CC(C)COc1ccc(-c2nnc(-c3ccco3)o2)cc1
→ -17%	-3	-4%	3.7%
> CC1CC(C)(C)NC(=S)N1CC(=O)N(C)Cc1ccccc1 (stereo unspecified)
→ 9%	3	-11%	-1.2%
> CCC(C)NCCCCOc1ccc(Br)cc1 (stereo unspecified)
→ -7%	1	-3%	0.1%
> CCN(CC(=O)Nc1cccc(OC)c1)C(=O)C1CCN(C(=O)Nc2ccccc2)CC1
→ -12%	3	-5%	3.6%
> Cc1ccc(NC(=O)CN(C)C(=O)COC(=O)/C=C/c2cccs2)cc1
→ 4%	nt	nt	-1.6%
> Cc1ccc2[nH]c(=O)c(-c3nc4cc(C)ccn4c3NCc3ccco3)cc2c1
→ 20%	-11	-28%	1.2%
> Cc1cccc(OCC(=O)Nc2ccc(N3CCN(C(=O)c4ccco4)CC3)cc2)c1
→ 1%	3	29%	-2.4%
> O=C(c1cscn1)N1CCCC(N2CCN(c3ccc(F)cc3)CC2)C1 (stereo unspecified)
→ -10%	nt	-4%	-1.8%
> Cc1cc(C)c(NC(=O)Cn2c(=O)n(-c3ccc(CC(=O)NCC4CCCO4)cc3)c(=O)c3ccccc32)c(C)c1 (stereo unspecified)
→ 14%	4	-1%&-17%	1.6%
> CN(C)C(=O)CSc1nnc(-c2ccncc2)n1Cc1ccco1
→ -12%	-1	-2%	-1.2%
> CCc1cccc(NC(=O)Cn2c(=O)oc3cc(S(=O)(=O)N4CCOCC4)ccc32)c1
→ 17%	-9	12%	0.0%
> CCn1c(SCC(=O)c2c[nH]c3ccccc23)nnc1-c1cccs1
→ 8%	3	5%	-1.3%
> COc1ccc(Cc2nnc(Nc3ccc(C)cc3)o2)cc1OC
→ 10%	1	0%	0.1%
> O=C(Cn1c(NCCCO)nc2ccccc21)c1ccc([N+](=O)[O-])cc1
→ 3%	nt	1%	0.4%
> FC(F)(F)c1cc(Nc2ccccc2)nc(-c2ccccn2)n1
→ 13%	nt	8%	1.6%
> COc1ccc(/C=N/NC(=O)c2c(-c3ccccc3)noc2C)cc1[N+](=O)[O-]
→ 14%	nt	6%	-1.1%
> O=C(O)c1c2c(nc3ccc(S(=O)(=O)N4CCC(C(=O)NC5CCCCCC5)CC4)cc13)CCCC2
→ -4%	6[21.1 µM]	0%	?
> CC(=O)Nc1cc(NC(C)=O)cc(C(=O)OCC(=O)Nc2ccc(S(=O)(=O)NC3=NCCCCC3)cc2)c1
→ -15%	nt	1%	0.8%
> Fc1cc(Br)ccc1NC(=S)NCCc1ccccc1
→ -8%	1	-18%	3.7%
> O=C(/C=C/c1ccc(Cl)c(Cl)c1)N1CCOCC1
→ -19%	nt	-47%	-0.2%
> CCOc1ccc(S(=O)(=O)N2CCN(C(=O)c3ccco3)CC2)cc1
→ 12%	nt	-4%	-0.9%
> Cc1ccc(OCCCn2c(CO)nc3ccccc32)cc1
→ -2%	-9	-49%	0.7%
> COc1cc(C(CCN2CCN(c3ccccc3)CC2)c2c(OC)cc(OC)c3c(C)cc(=O)oc23)cc(OC)c1OC (stereo unspecified)
→ -1%	-1	7%	1.3%
> Cc1nc(NC(C)c2ccccc2)c2c3c(sc2n1)CCC3 (stereo unspecified)
→ 17%	1	8%	-0.9%
> Fc1ccc(NC(=S)N2CCc3ccccc32)cc1
→ 1%	nt	-10%	?
> CCCCCCn1ccc(=N)cc1
→ -3%	-13	?	-0.6%
> CCCNC(=O)c1ccc2c(=O)c(O)c(-c3ccc(F)cc3)[nH]c2c1
→ ?	0	21%	7.2%
> O=C(Nc1ccc(N2CCCC2)cc1)c1ccccc1[N+](=O)[O-]
→ 8%	nt	-13%	-1.8%
> O=C(O)CC(C(=O)OCC1CCCO1)N1CCOCC1 (stereo unspecified)
→ 2%	-8	-2%	4.9%
> O=C(COc1ccccc1Cl)Nc1nnc(S(=O)(=O)N2CCCC2)s1
→ 32%	nt	-2%&-2%	-0.2%
> COc1ccc(C(=O)Nc2nc(CC(=O)NCCc3cccc(OC)c3)cs2)cc1
→ -12%	nt	nt	1.1%
> Cc1ccc(S(=O)(=O)N2CCN(Cc3cc(C(C)(C)C)ccc3O)CC2)cc1
→ 6%	nt	-3%	4.2%
> N#CCCCCN1CCCC1
→ 0%	-2	4%	1.7%
> CCOC(=O)CP(=O)(c1ccccc1)c1ccccc1
→ -18%	14	2%	-0.1%
> C/C(=N/NC(=O)CNC(=O)CCc1ccccc1)c1ccc(Cl)cc1
→ -14%	1	-6%	6.4%
> COc1cccc(NS(=O)(=O)c2cn(C)c(=O)n(C)c2=O)c1
→ 6%	7	1%	-1.9%
> CCN1C(=O)c2ccccc2Sc2ccc(C(=O)NCCCN3CCCCC3)cc21
→ -6%	nt	8%	5.8%
> CCOC(=O)c1sc(C)c(C(=O)NCC(C)(C)CN(C)C)c1N
→ 7%	0	-1%	0.2%
> O=S(=O)(c1ccc(F)cc1)N1CCN(Cc2ccccn2)CC1
→ -1%	2	4%	0.7%
> Cn1c(NC(=O)c2cccs2)c(-c2cccs2)c(=O)c2ccccc21
→ -15%	-1	0%	1.5%
> O=C(CCS(=O)(=O)c1ccccc1Cl)NC1CCCCCC1
→ 9%	nt	nt	-1.2%
> O=C(NCc1ccccc1)c1cccnc1
→ -11%	nt	5%	0.0%
> Cn1nnnc1SCC(=O)NCc1ccccc1
→ -7%	1	-9%	?
> COc1ccc(C(=S)N2CCOCC2)cc1OC(=O)c1ccccc1
→ 2%	nt	3%	0.0%

# (continued)
# Values in the order: Rango release inh	GLA inh pH 4.5	miR-21 FLuc	Rango-impB inh
> CC1CCN(C(=O)/C(=C\c2ccccc2)NC(=O)c2ccccc2)CC1
→ -9%	nt	0%	-0.7%
> O=C(COC(=O)c1cc(Cl)nc(Cl)c1)Nc1ccc(Cl)c(S(=O)(=O)N2CCOCC2)c1
→ 5%	nt	nt	2.9%
> COC(=O)c1cc(=O)n(Cc2ccc3c(c2)OCO3)c(=Nc2ccc(F)c(Cl)c2)s1
→ -1%	-3	0%	-2.7%
> Cc1ccc(NC(=O)CN2C(=O)C(=O)N(C3CCCC3)C2=O)cc1Cl
→ 16%	nt	nt	-0.1%
> COc1ccccc1NS(=O)(=O)c1c(C(=O)N2CCCC2)c(C)n(C)c1C
→ -6%	nt	-1%	-0.1%
> O=C(NCc1ccco1)C1CCCN1S(=O)(=O)c1ccc2ccccc2c1 (stereo unspecified)
→ -4%	11	-2%	-0.2%

# Limited to GLA inh pH 4.5 and Rango release inh, for some of the entries so far:
molecule,GLA inh pH 4.5,Rango release inh
O=C(COC(=O)c1cc(Cl)nc(Cl)c1)Nc1ccc(Cl)c(S(=O)(=O)N2CCOCC2)c1,nt,5%
COC(=O)c1cc(=O)n(Cc2ccc3c(c2)OCO3)c(=Nc2ccc(F)c(Cl)c2)s1,-3,-1%

# This is a subset; count on the stated rates, not on these rows.
